Screening results deposited in PubChem by National Center for Advancing Translational Sciences (NCATS).
TRPML1 agonist = human mucolipin-1 channel agonism; Q9GZU1; TRPML1-expressing cells, Ca2+ dye fluorescence, FDSS; host cell line not named in the record; reference of the full effect not given here; activation, % (test concentration not listed); 0.12% of 410,000 active; in the data active = activation above about 50%; inconclusive = about 30% to 50%; inactive = below about 30%; also: 0% is about no effect; the text of the record puts the active cut at 80%
Target sequence (Q9GZU1 whole entry, looked up): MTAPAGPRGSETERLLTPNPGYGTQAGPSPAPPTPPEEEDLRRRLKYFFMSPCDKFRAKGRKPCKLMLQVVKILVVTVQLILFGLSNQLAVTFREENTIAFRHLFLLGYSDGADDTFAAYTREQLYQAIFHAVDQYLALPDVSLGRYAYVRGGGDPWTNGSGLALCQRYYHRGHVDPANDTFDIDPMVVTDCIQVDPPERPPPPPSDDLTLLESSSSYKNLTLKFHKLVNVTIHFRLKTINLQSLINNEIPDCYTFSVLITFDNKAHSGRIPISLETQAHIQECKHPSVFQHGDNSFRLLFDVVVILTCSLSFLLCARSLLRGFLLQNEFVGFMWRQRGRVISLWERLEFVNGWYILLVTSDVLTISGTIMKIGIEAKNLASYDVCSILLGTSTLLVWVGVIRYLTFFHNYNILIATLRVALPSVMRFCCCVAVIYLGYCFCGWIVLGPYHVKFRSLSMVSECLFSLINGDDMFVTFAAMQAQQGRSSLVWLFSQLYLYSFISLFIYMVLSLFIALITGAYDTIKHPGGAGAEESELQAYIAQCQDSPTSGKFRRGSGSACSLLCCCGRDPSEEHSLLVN
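Calcium fluorescence on an FDSS kinetic reader gave the read-out. Tet-induced TRPML1-DL cells were plated overnight, dye-loaded (Ca8 with quencher, 45-90 min, room temperature, dark), then read 110 s after compound addition, and again 110 s after 4uM final 54-4 (EC80).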
gsp antagonist = antagonizes gsp, the McCune-Albright syndrome mutation. 0.4% of 340,000 active. AID 624288. Potency, µM (highest dose often 76.9 µM), inactives show at the highest dose activity change, negative = inhibition, hits mostly inhibitors. gsp-mutant cells, cAMP HTRF, 30 min; control for the full effect not named in the record; active = falling curve of any shape with a large fitted effect; inconclusive = falling curve, mostly with a smaller effect; inactive = flat or rising curve; cell line not stated here;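 also: intracellular cAMP measured with PDE inhibitor Ro 20-1724 present during compound exposure; potency is read from the fitted curve at half-maximal effect; % is scaled to controls: 0 for no effect and ±100 for the full control effect; nearly all actives have a fitted effect of over 65% in size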
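G418-selected cells were plated in DMEM/10% FBS for 16-24 h at 37C, then treated with compounds plus the PDE inhibitor […] (300 uM solution added) for 30 min at 37C. Intracellular cAMP was measured by HTRF after 30 min lysis at room temperature.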
Menin MLL FP FL = inhibitors of human menin-MLL interaction, wild-type MLL peptide; AID 1766; FP activity change, % at 61.4 µM; Fluorescence polarization, fluorescein-MLL peptide displacement from menin; 290,000 tested, under 10 active; inconclusive = falling polarisation curve, or a change in total fluorescence; inactive = total fluorescence flat and polarisation flat or rising; no compound was filed as active; the % refers to the polarisation; negative = inhibition;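 also: % of control where 0% means no effect; inhibitors lower the polarisation; unlabelled MLL peptide was the positive control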
TRPML1 inh = inhibitors of human TRPML1 channel | Q9GZU1 | TRPML1-inducible cells, Ca2+ dye fluorescence, FDSS; active compounds read low; inhibition of EC80 agonist-evoked calcium signal | activity change, negative = inhibition, % (concentration not given with the values) | 0.02% of 390,000 active | AID 624415; in the data active means activity change below about -50%; inconclusive means about -30% to -50%; inactive means above about -30%;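 also: stimulus is agonist 54-4 at its EC80 concentration; % is scaled to controls: 0 for no effect and ±100 for the full control effect; the text of the record puts the active cut at -80%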
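Calcium fluorescence in TRPML1-DL cells induced overnight with Tet: a 110 s read after compound pin addition, then a 110 s antagonist read after challenge with 54-4 at 4 uM final (EC80).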
gsp agonist = gsp mutant agonism. Potency, µM (doses to about 76.9 µM), inactives show at the top dose activation (cAMP increase), hits mostly activators. 0.13% of 340,000 active. gsp mutant cells, cAMP HTRF, 30 min; control for the full effect not named in the record. AID 624287; active = well fitted activation curve with a large enough effect; inconclusive = small, poorly fitted or top-dose-only effect, or another doubt; inactive = no such curve, though single readings can be large or run the other way; cell line not stated here;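 also: phosphodiesterase inhibitor Ro 20-1724 added with compounds to block cAMP breakdown; potency is read from the fitted curve at half-maximal effect; nearly all actives have a fitted effect of over 60% in size; about a fifth of the inactives were tested at one dose only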
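Cells stably selected in G418 were plated at 2000/well, grown 16-24 hr, then given compounds in DMSO with the PDE inhibitor […] (300 uM solution added) for 30 min at 37C; cAMP was read by HTRF.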
ClpP mod = qHTS Assay for Activators of ClpP; ATP-dependent Clp protease proteolytic subunit (Bacillus subtilis (strain 168)), P80244; purified B. subtilis ClpP, FRET peptide cleavage, 20 min; Potency, µM (series often up to 57.5 µM), inactives show top-dose activity change, negative = active; 1.9% of 340,000 active; active = well fitted falling curve with a large enough effect; inconclusive = small, poorly fitted or top-dose-only effect; inactive = no such curve, though single readings can be large or run the other way; also: potency is read from the fitted curve at half-maximal effect; the source files actives as falling curves though it sought activators and does not explain the sign; nearly all actives have a fitted effect of over 65% in size; many hits overshoot -100%
Target sequence (P80244 whole entry, looked up): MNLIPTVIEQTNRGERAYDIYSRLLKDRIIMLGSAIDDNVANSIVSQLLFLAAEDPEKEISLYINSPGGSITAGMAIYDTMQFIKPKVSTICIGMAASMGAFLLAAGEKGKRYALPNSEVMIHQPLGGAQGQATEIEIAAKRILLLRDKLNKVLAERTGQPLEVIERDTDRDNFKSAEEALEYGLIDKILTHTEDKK
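FRET quenching reversal measured ClpP activation: 10 microg/mL B. subtilis ClpP at pH 8 with the FRET-FV decapeptide, read at 430 nm after 320 nm excitation. The 20-min minus 0-min signal was scaled between DMSO/no-enzyme wells and ADEP (5.8 microM final).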
An asterisk follows results filed as active; ? = inconclusive; . = not tested or not shown; & = joins results of further samples; [ ] = remark or other dose.

canonical_smiles	TRPML1 agonist	gsp antagonist	Menin MLL FP FL	TRPML1 inh	gsp agonist	ClpP mod
Cc1ccc(Cl)cc1NC(=O)Cn1nnc2sc3c(c2c1=O)CCC(C(C)(C)C)C3 (configuration not stated)	0.9	.	.	19	.	-5.9%
CCN(CC)CCNC(=O)c1ccc(NC(=O)Cc2ccc(OC)c(S(=O)(=O)N3CCOCC3)c2)cc1	-0.5	8%	.	3	27%	-0.7%
C=CC[C@H](CC(=O)NCCO)C(=O)N[C@H](COC(=O)[C@@H](CC=C)Cc1ccc(F)cc1)Cc1ccccc1	-0.1	-8%	.	8	.	-8.5%
Cc1ccc(N2C(=O)CSC2c2ccc3c(c2)OCO3)cc1 (configuration not stated)	0.1	-9%	2.8	-3	-6%[15.4 µM]	1.4%
Cc1ccc(NC(=S)NCCc2c[nH]c3ccccc23)cc1	1.7	7%	1.4	-14	-16%	0.4%
CCOCCCn1c(SCC(=O)NCc2ccco2)nc2c(sc3ccccc32)c1=O	0.3	-7%	20	2	-13%	0.1%
COCCSc1nnc(NS(=O)(=O)c2ccccc2)s1	0.0	0%	1.4	17	3%	.
N#CCSc1nc(-c2ccccc2)nc2ccc(F)cc12	.	-2%	0.5	.	-61%[inhibitor]	-4.1%
CCOc1ccc(NC(C)=O)cc1[N+](=O)[O-]	0.8	5%	-3.7	?	-6%	1.2%
Cc1ncc(CO)c2c1Oc1nc(-c3ccccc3F)nc(SCC(=O)N(C)c3ccccc3)c1C2	0.7	40µM*	.	10	-23%	1.0%
O=C(COC(=O)C1CCN(c2ccc(C(F)(F)F)cn2)CC1)Nc1ccc(Cl)cn1	0.4	-5%	.	5	10%[15.4 µM]	1.4%
O=C(Cn1nc(-c2ccc(Cl)cc2)ccc1=O)NCCc1ccccc1	1.4	.	.	82	.	-8.0%
O=C(CN1c2cccc3cccc(c23)S1(=O)=O)Nc1ccccc1Br	1.5	-11%	.	49	0%	-9.8%
CCOC(=O)c1c(-c2ccccc2)oc2ccc(OCc3ccc(C)cc3)cc12	3.1	.	.	-16	.	4.3%
COC(=O)c1cc(NC(=O)[C@H](CCS(C)(=O)=O)N2Cc3ccccc3C2=O)cc(C(=O)OC)c1	0.8	.	.	-10	.	-3.5%
Cc1nnc(SCC(=O)NC2CCCCCC2)n1C(C)C	0.6	-5%	0.4	16	-19%	-1.1%
COc1cccc(/C=N/N2CCN(Cc3ccccc3)CC2)c1O	-0.2	-5%	-4.1	15	0%[15.4 µM]	-0.9%
Cc1nc2sccn2c(=O)c1S(=O)(=O)Nc1ccc(N2CCOCC2)cc1	-0.6	.	.	1	.	0.7%
COc1ccc(N2CCN(C(=O)NC(=O)c3ccc(Cl)cc3)CC2)cc1	2.0	8%	.	6	-3%	-0.2%
Cc1ccc(C(=O)COC(=O)COc2ccccc2C)cc1	2.8	-3%	.	-7	-31%[inhibitor]	1.6%
CC(C)(C)NC(=O)CN1CCC(O)(c2ccc3c(c2)OCO3)CC1	1.4	7%	5.5	-9	-13%	0.2%
Cc1oc(-c2ccc(C(=O)NCCN(C)C)cc2)nc1CS(=O)(=O)c1ccccc1	-0.3	.	.	15	.	4.0%
COc1cc(OCc2ccc(C)cc2)ccc1CNC[C@H]1O[C@@H](n2cnc(C(N)=O)n2)[C@H](O)[C@@H]1O	-0.4	-6%	.	11	.	-1.7%
CCOC(=O)C1=C(C)NC(SC)=NC1c1ccc(OC)cc1 (configuration not stated)	-0.3	-9%	5.3	-7	-14%	1.7%
O=C(NNC(=O)c1ccc2c(c1)OCO2)NC1CCCCC1	-0.4	4%	-0.5	8	-23%	-5.7%
Cc1ccc(C)c(OCCC(=O)N2CCN(S(=O)(=O)c3cc(F)ccc3F)CC2)c1	0.8	?	.	-12	6%	-1.4%
Cc1cc(NC(=O)CSc2nnc(-c3ccc4c(c3)OCCO4)o2)no1	-0.8	-6%	0.3	1	?	-2.6%
O=C(Nc1sc2c(c1C(=O)NCc1ccccc1)CCCC2)c1cc(=O)c2cc(Cl)ccc2o1	1.4	.	.	-13	.	0.4%
Cn1cccc1/C=N/NC(=O)Cn1cnc2ccccc21	-0.4	0%	1.6	-6	23%	-1.8%
COc1ccc(NC(=O)c2ccccc2NC(=O)CSc2ccccc2)cc1	2.0	13%	4.2	22	-21%	2.2%
CC(C(O)c1ccc(O)cc1)N1CCC(Cc2ccccc2)CC1 (configuration not stated)	0.4&1.1&0.1	-1%&-3%&6%	-4.6&0.2&0.1&3.1&0.2	15&30&-1	.	-1.6%&-3.2%&-2.0%
CC1(C)C(=O)Nc2ccccc2N1C(=O)CSc1nnc2ccccn12	0.1	1%	16	11	27%	-17%
COc1ccc([C@H]2CC(=O)C=C(c3cc4ccccc4s3)C2)cc1OC	0.9	?	.	3	.	-1.5%
CC(=O)N1CCCc2cc(S(=O)(=O)CCC(=O)N3CCN(c4ccccc4)CC3)ccc21	-1.1	-3%	0.4	-4	-2%	0.2%
O=C(CS(=O)(=O)c1ccccc1)Nc1nccs1	0.3	3%	-0.7	18	4%	.
COc1ccc(-c2nnc(SCC(=O)N/N=C/c3ccccc3C(=O)O)n2-c2ccc(Cl)cc2)cc1	-0.8	-8%	1.7	19	-18%	1.3%
O=C1CCCC(=O)N1c1ccc(O)cc1	3.4	11%	-3.9	-25	29%	-3.3%
Cc1nn2c(=O)cc(CN(C)c3ccccc3)nc2s1	-1.2	.	.	9	.	1.4%
CC(C)C[C@H](N)c1nnc(SCC(=O)Nc2ccc(Br)cc2)o1	0.1	0%	.	-6	2%	-2.9%
O=C(NC1CCCCC1)c1cc([N+](=O)[O-])ccc1N1CCCC1	0.0	-3%	-0.2	-6	12%	-0.2%
CN1C(=O)C(C)(C)c2cc(S(=O)(=O)N3CCC(C(=O)Nc4ccc(Cl)cc4)CC3)ccc21	-0.8	1%	8.0	2	?	-1.1%
C=CCN(CC=C)S(=O)(=O)c1ccc(NC(=O)COc2ccccc2OC)cc1	-0.1	-4%	0.2	-1	-21%	-0.4%
O=C(Nc1cccs1)Nc1cc(C(F)(F)F)ccc1Cl	0.2	.	.	-13	.	0.5%
CCOCCCNC(=O)c1ccc(OC)c(OC2CCN(C(C)C)CC2)c1	0.2	5%	-3.9	10	8%	-4.1%
CC(=O)c1ccc(S(=O)(=O)NCCC(=O)NC2CCN(Cc3ccccc3)CC2)cc1	0.6	1%	.	20	6%	.
O=[N+]([O-])c1ccc(-c2csc(N3CCc4ccccc4C3)n2)cc1	0.9	8%	-0.3	0	7%	-4.5%
Cc1cc2c(cc1NC(=O)c1ccccc1Cl)n(C)c(=O)c(=O)n2C	1.5	.	.	14	.	-4.0%
CC(=O)Nc1ccc(S(=O)(=O)N2N=NC3C2C2CC4C3(CN(C(=O)OC(C)(C)C)S4(=O)=O)O2)cc1 (configuration not stated)	0.1	.	1.6	8	.	.
O=C(/C=C/c1ccccc1O)c1ccc(Cl)cc1	1.7	-5%	2.7	16	-37%[inhibitor]	0.9%
c1ccc(-c2nnc(SCC3CCCCO3)nc2-c2ccccc2)cc1 (configuration not stated)	1.9	.	-5.0	-7	11%[15.4 µM]	.
CCS(=O)(=O)c1ccc2c(c1)N(S(C)(=O)=O)CC(C(=O)NCc1ccccc1OC)O2 (configuration not stated)	-0.9	-3%	1.0	-12	-1%	2.3%
CCc1cccc(NC(=O)Cc2nc(-c3ccc(OC)cc3)no2)c1	1.1	.	.	1	.	1.6%
COc1ccc(C2/C=C\CN(CC(C)C)C(C)C(=O)N2Cc2ccc(F)cc2)cc1 (configuration not stated)	1.5	.	6.2	71	.	.
O=C(COC(=O)c1c(F)cccc1F)NCc1ccc2c(c1)OCO2	-0.5	9%	.	2	14%	0.3%
O=C1c2cc(Cl)ccc2OC2(CCNCC2)C12CC(c1ccccc1)=NO2 (configuration not stated)	0.9	10%	-0.9	29	13%	-2.0%
c1coc(CSc2ncnc3c2oc2ccccc23)c1	4.4	2%	7.5	21	7%[15.4 µM]	.
CC1CCC(NC(=O)c2ccc(COc3ccccc3)o2)CC1 (configuration not stated)	1.8	1%	.	24	-20%[15.4 µM]	.
Cc1cc2sc3ccccc3c(=O)c2c(C)c1O	-1.0	-27%	?	10	9%[15.4 µM]	26%
CC1CCC(NC(=O)c2ccc(CNc3c(NC4CCCCC4)c(=O)c3=O)cc2)CC1 (configuration not stated)	0.2	7%	-0.6	22	0%	-3.2%
Cc1cc(N/N=C/c2ccc(O)cc2O)nc(-c2ccccc2O)n1	0.3	?	8.2	0	-1%[15.4 µM]	-10%

Next structures follow:
canonical_smiles	TRPML1 agonist	gsp antagonist	Menin MLL FP FL	TRPML1 inh	gsp agonist	ClpP mod
O=c1cc(-c2ccccc2)c2cc3c(cc2[nH]1)OCCO3	1.4	-8%	-2.9	20	-34%[inhibitor]	.
O=S(=O)(c1ccc(SCc2ccccc2)nc1)N1CCCC1	1.2	-1%	.	-3	-11%	-0.3%
N#CC1=C(N)C(C#N)(C#N)[C@H](c2c(F)cccc2F)[C@H]2CC3(CC=C12)OCCO3	10.0	5%	?	6	?	-11%
COc1ccc(CNC(=S)N/N=C/c2ccc(OC)c(OC)c2)cc1	-0.1	-2%	0.5	-20	?	-3.6%
CCNS(=O)(=O)c1ccc(CCC(=O)N2CCN(C(=O)OCC)CC2)cc1	-0.8	4%	-0.6	-13	-1%	-0.8%
Cc1c(NC(=O)c2ccc3c(c2)C(=O)N(Cc2ccco2)C3=O)cccc1C(=O)O	-0.1	2%	-0.4	-10	-1%	.
COc1cc(NC(=O)Cn2c(=O)n(Cc3ccco3)c(=O)c3oc4ccccc4c32)cc(OC)c1	-0.3	.	.	0	.	4.4%
